# Assay outcomes (PubChem)
# BLM inh – inhibitors of human Bloom syndrome helicase BLM | P54132 | recombinant BLM DNA unwinding, fluorescence dequenching | Potency, µM (highest dose often 56.1 µM), for inactives: at the highest dose activity change, negative = inhibition, hits mostly inhibitors | 0.2% of 350,000 active | AID 2528;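 further: plate controls were vehicle for no effect and no enzyme for full effect; nearly all actives have a fitted effect of over 35% in size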
# Anesthetic bind – binds horse apoferritin like a general anesthetic. apoferritin/1-aminoanthracene competitive binding, fluorescence. Potency, µM (doses to about 77.5 µM), without a hit: top-dose activity change, negative = displacement, hits mostly inhibitors. 0.074% of 350,000 active. AID 485281; further: on the % scale 0 is the no-effect control and ±100 the full control effect; nearly all actives have a fitted effect of over 20% in size
# Target sequence (P02791 2-175 limits assumed): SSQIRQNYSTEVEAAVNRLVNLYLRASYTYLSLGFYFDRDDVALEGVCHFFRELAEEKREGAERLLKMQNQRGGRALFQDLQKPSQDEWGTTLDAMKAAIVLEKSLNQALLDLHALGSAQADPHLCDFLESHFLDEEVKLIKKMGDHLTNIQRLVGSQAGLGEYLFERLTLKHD
#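 10 uM apoferritin + 50% sat. 1-AMA, PBS; cpd 10 min RT; Ex380/Em535 endpoint; normalized to free probe vs complex; 4-param Hill fit; propofol titration as pos. ctrl.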
# Pol iota inh – DNA polymerase iota (human) inhibition; 1% of 390,000 active; Pol iota fluorescent replication assay, 10 min; Q9UNA4; AID 588590; Potency, µM (titrated, usually from 115 µM), for inactives: at the highest dose activity, negative = inhibition, actives largely listed as inhibitors
#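 Pol iota at 10 nM preincubated 15 min with compounds at room temperature; reaction started with fluorescent substrate, 50 nM final. Fluorescence read kinetically at 0 and 10 min; buffer-only wells as negative control.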
# G9a block – G9a (human) methyltransferase inhibition; 8.8% of 350,000 active; AID 504332; Potency, µM (titrated, usually from 102 µM), for inactives: at the top dose activity, negative = inhibition, hits mostly inhibitors; G9a H3K9 monomethylation, AlphaScreen, 2 h; Q96KQ7; further: on the % scale 0 is the no-effect control and ±100 the full control effect; nearly all actives have a fitted effect of over 75% in size
#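 Quantitative HTS format: methyltransferase activity on a biotin-tagged H3K9 peptide is measured by AlphaScreen, using a rabbit anti-monomethyl-H3K9 antibody with streptavidin donor and anti-IgG acceptor beads. Final levels are 20 nM enzyme, 500 nM peptide, 20 uM SAM; 2 h RT.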
# POLB inh – DNA polymerase beta (human) inhibition | P06746 | Pol beta primer extension/strand displacement, fluorescence kinetic | Potency, µM (top dose mostly 114 µM), for inactives: top-dose activity change, negative = inhibition, hits mostly inhibitors | 1.3% of 340,000 active | AID 485314; further: on the % scale 0 is the no-effect control and ±100 the full control effect
#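 Enzyme-only controls used 10 nM Pol beta; buffer lacking enzyme served as negative control. Compound preincubated 15 min, then 50 nM substrate added; 0 and 10 min reads at room temperature.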
# POLH inh – inhibitors of human DNA polymerase eta; 1.2% of 390,000 active; Potency, µM (series often up to 114 µM), for inactives: at the top dose activity change, negative = inhibition, usual class: inhibitors; Q9Y253; recombinant Pol eta, fluorescent DNA replication assay; further: on the % scale 0 is the no-effect control and ±100 the full control effect
# Target sequence (Q9Y253 whole entry, looked up): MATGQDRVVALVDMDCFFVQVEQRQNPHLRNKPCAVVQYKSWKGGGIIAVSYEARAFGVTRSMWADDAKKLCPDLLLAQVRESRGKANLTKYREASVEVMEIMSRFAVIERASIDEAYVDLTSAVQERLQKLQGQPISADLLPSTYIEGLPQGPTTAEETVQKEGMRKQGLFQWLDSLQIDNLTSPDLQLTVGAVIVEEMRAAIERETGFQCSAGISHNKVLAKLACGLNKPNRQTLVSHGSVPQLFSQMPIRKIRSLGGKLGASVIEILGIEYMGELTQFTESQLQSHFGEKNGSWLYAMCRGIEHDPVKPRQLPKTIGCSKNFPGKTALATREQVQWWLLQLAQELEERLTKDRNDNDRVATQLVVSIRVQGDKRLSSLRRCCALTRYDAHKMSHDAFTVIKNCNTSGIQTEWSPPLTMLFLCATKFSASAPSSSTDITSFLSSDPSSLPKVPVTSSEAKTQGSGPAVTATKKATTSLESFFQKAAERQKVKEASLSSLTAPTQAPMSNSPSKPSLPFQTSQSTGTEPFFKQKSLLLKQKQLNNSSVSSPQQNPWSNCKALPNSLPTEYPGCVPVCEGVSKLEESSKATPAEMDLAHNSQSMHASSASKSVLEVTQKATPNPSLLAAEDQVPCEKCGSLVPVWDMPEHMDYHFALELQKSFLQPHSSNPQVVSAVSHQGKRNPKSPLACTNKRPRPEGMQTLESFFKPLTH
#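 Fluorescent replication assay: 50 nM final substrate added after a 15 min room-temperature compound preincubation with 10 nM enzyme. Signal taken at 0 min and again at 10 min.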
# APEX1 inh – inhibitors of human APE1 endonuclease; P27695; 0.35% of 350,000 active; Potency, µM (doses to about 65.8 µM), without a hit: at the top dose activity change, negative = inhibition, usual class: inhibitors; AID 2517; recombinant APE1, TAMRA/BHQ-2 abasic DNA cleavage fluorescence;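 further: plate controls were vehicle for no effect and reference inhibitor for full effect; nearly all actives have a fitted effect of over 55% in size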
#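 Measures dequenching upon AP-site incision of a 5'-TAMRA/3'-BHQ-2 THF-containing duplex, 50 nM; human APE1 0.75 nM after 15 min room-temperature exposure to compound; kinetic three-point read at one-minute spacing.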
# Pol kappa inh – DNA polymerase kappa (human) inhibition. Q9UBT6. purified Pol kappa, fluorescent DNA synthesis assay, 10 min. Potency, µM (series often up to 107 µM), without a hit: at the top dose activity, negative = inhibition, hits mostly inhibitors. 0.53% of 400,000 active; further: on the % scale 0 is the no-effect control and ±100 the full control effect
#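 Kinetic fluorescence screen: compound preincubated 15 min RT with 10 nM enzyme; 50 nM substrate (final) initiates; reads at 0/10 min.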
# Starred values were filed as active, the others as inactive; ? = inconclusive; nt = no result given; [ ] = another dose, or the depositor's remark. The call rests on the fitted dose curve; in most records, active means well fitted curve in the direction sought with a large enough effect; inconclusive means small, poorly fitted or top-dose-only effect, or another doubt; inactive means no such curve, though single readings can be large; an effect the other way counts as inactive or inconclusive. Potency means the concentration at half of the fitted maximal effect. Only part of the results is shown. The share of hits here may be higher or lower than overall.
SMILES,BLM inh,Anesthetic bind,Pol iota inh,G9a block,POLB inh,POLH inh,APEX1 inh,Pol kappa inh
Oc1ccccc1N1CCN(CC(O)COC2CCCc3ccccc32)CC1 (stereo unspecified),-2%,1%,5%,79µM*,14%,-3%,1%,-14%
COc1ccc(NC(=O)NNC(=O)c2cc3occc3n2C)c(OC)c1,-3%,4%,41%,?,21%,-19%,50%,-12%
C[C@H](NC(=O)c1nc[nH]c1C(=O)NCC(=O)OCc1ccccc1)C(=O)OC(C)(C)C,-8%,?,10%,nt,25%,?,-17%,-3%
CCOc1ccc(N(C)S(=O)(=O)c2cc(-c3cnc(C)o3)ccc2OC)cc1,-10%,-5%,10%,4%[59 µM],4%,-6%,nt,-9%[60.1 µM]
COC1CCCCC1Nc1cc(C)ccc1C (stereo unspecified),-4%,-2%,29%,20µM*,?,-4%,4%,-7%
CC(C)=NNc1nc2c(c(=O)[nH]c(=O)n2C)n1CCCc1ccccc1,-14%,-19%,-16%,-3%[2.33 µM],-8%,-16%,62%[activator],-10%
COc1ccc(CCNC(=O)c2cc(-c3cc(C)ccc3O)n[nH]2)cc1OC,-3%,-21%,?,-16%,-6%,-10%,15%,4%
Cc1ccc(-n2ncc3c(NCc4ccccn4)ncnc32)c(C)c1,-3%,?,-12%,?,22%,-12%,15%,8%
CCCCNC(=O)CN1CCN(Cc2ccc3cc(OC)ccc3c2)CC1,-11%,-3%,?,45µM*,2%,-10%,14%,0%
Cc1nc(C)c(/C(O)=C/c2nc3ccc([N+](=O)[O-])cc3oc2=O)o1,1%,-19%,nt,35µM*,-1%,nt,-1%,nt
S=c1[nH]nc(-c2ccccn2)n1/N=C/c1ccc(-c2ccccc2Br)o1,-13%,?,79µM*,1.4µM*,50µM*,-6%,12%,5%
O=C(Cc1ccccc1)NC1CCN(S(=O)(=O)c2cccc(F)c2)CC1,2%,-15%,11%,6%,-29%,6%,0%,-18%
CN(CCc1ccccn1)Cc1ccc(Cl)c(Cl)c1,0%,-5%,28%,?,1%,-16%,34%,7%
COc1cc(CNc2ncc(-c3ccc(Br)cc3)n2C)cc(OC)c1O,-4%,-11%,32%[activator],nt,8%,-24%,-7%,-5%
COc1ccc(NC(=O)CN2CCN(CC(=O)Nc3cc(OC)cc(OC)c3)CC2)cc1,-10%,-2%,11%,?,-2%,-20%,-3%,-12%
Oc1ccc(CNCC2COc3ccccc3O2)cc1 (stereo unspecified),5%,-5%,-4%,11%[2.33 µM],57%,-1%,12%,-8%
COc1ccc(C(=O)NC(=S)NNC(=O)c2cnccn2)cc1,2%,-3%,27%,?,47%,-2%,4%,-16%
O=C(Nc1ccc(Cl)cc1)C1=Cc2ccccc2OC1,-11%,-10%,-3%,4%,-12%,-16%,-6%,-1%
O=C(NCC(c1ccc2c(c1)OCO2)N1CCN(c2ccc(F)cc2)CC1)c1cccc([N+](=O)[O-])c1 (stereo unspecified),-9%,-4%,-10%,?,-1%,-17%,nt,-5%[60.1 µM]
COc1ccc(CN2CCN(C(=O)c3cccc4ccccc34)CC2)cc1OC,0%,-7%,16%,nt,49%,9%,-13%,1%
O=C(O)c1ccccc1NC(=O)N1c2ccccc2Sc2ccccc21,-2%,-7%,29%,?,3%,-6%,nt,-8%
COc1ccc(C)cc1NCC(=O)Nc1ccc(C(C)(C)C)cc1,-15%,?,10%,35µM*,3%[57.1 µM],-19%,-6%,-13%
CC(=O)c1ccc(N2CCN(CC(O)COCc3ccco3)CC2)cc1 (stereo unspecified),-1%,-6%,?,?,16%,2%,26%,-2%
CC(OC(=O)Cc1c[nH]c2ccccc12)C(=O)Nc1ccccc1[N+](=O)[O-] (stereo unspecified),nt,nt,35%[activator],32µM*,nt,-10%,8%,-3%
COc1cc(/C=C2\CCn3c2nc2cc(C(=O)O)ccc2c3=O)ccc1OC(F)F,-2%,5%,-4%,89µM*,-4%,?,?,-6%

# Going on with the list.
SMILES,BLM inh,Anesthetic bind,Pol iota inh,G9a block,POLB inh,POLH inh,APEX1 inh,Pol kappa inh
O=C(CCc1ccccc1)NC(NC(=S)Nc1ccc(Cl)cc1)C(Cl)(Cl)Cl (stereo unspecified),-3%,-3%,?,?,13%,-10%,4%,3%
CC(NC(=O)OC(C)(C)C)C(=O)N1CCCC1C(=O)NC(Cc1ccccc1)C(N)=O (stereo unspecified),3%,-10%,8%,0%[59 µM],17%,-5%,6%,3%
CC(C)CC(=O)N1CCN(Cc2cccc([N+](=O)[O-])c2)CC1,5%,-7%,-2%,nt,7%,1%,3%,-7%
O=C(OCc1cc(Cl)ccc1OC(F)F)c1ccc([N+](=O)[O-])o1,-5%,-3%,nt,28µM*,?,nt,11%,nt
COc1cccc(N2CCN(C(=O)c3ccc(CSc4nc5ccncc5[nH]4)cc3)CC2)c1,-3%,-15%,5%,13µM*,-1%,-11%,20%,20%
Cc1ccc(SCC(=O)Nc2nnc(-c3ccco3)o2)cc1,nt,nt,-8%,31%[activator],nt,-14%,12%,-9%
COCCCNc1oc(-c2ccc(COc3ccccc3C)o2)nc1C#N,-10%,-2%,3%,10µM*,2%,-9%,nt,-12%
CCC(Sc1nnc(C)n2c1cc1occc12)C(=O)Nc1ccccc1F (stereo unspecified),-5%,55%[activator],10%,-47%[59 µM],-2%,-12%,nt,-15%
CC1CCCN(c2ccc([N+](=O)[O-])s2)C1 (stereo unspecified),1%,-18%,13%,25µM*,0%,1%,7%,4%
CCC/C=N/Nc1nnc(Cc2ccc(OC)c(OC)c2)c(=O)[nH]1,-2%,-3%,8%,?,6%,-13%,43%[activator],-37%
C=CCc1ccc(OCCCCN2CC(C)OC(C)C2)c(OC)c1 (stereo unspecified),1%,-23%,2%,3.2µM*,14%,1%,?,-4%
COc1ccc(CN2CCN(C(=O)CC(C)C)CC2)cc1OC,1%,0%,6%,?,4%,3%,-3%,-2%
O=C(CNCC1CCCO1)NCc1ccco1 (stereo unspecified),-2%,-3%,147%[activator],8.9µM*,-13%,-16%,4%,-5%
COc1ccc(CN2CCSCC2)cc1O,-3%,?,12%,13µM*,-1%,-3%,2%,0%
N#Cc1nc(COc2ccc(Br)cc2)oc1N1CCCCCC1,-8%,80%[activator],13%,45µM*,15%,-11%,-4%,-4%
Cc1ccc(OCC(=O)O/N=C(\N)c2ccccn2)cc1,-5%,-12%,169%[activator],?,0%,-8%,6%,-14%
COc1ccccc1/C=C/C(=O)OCC(=O)Nc1nnc(-c2ccccc2)o1,nt,nt,-17%,-3%,nt,?,-34%,-26%
CC1CC(C)CN(CC(=O)N2c3ccccc3CCc3ccccc32)C1 (stereo unspecified),-1%,-9%,26%,nt,-20%,-9%,-1%,-7%
Cc1ccc(S(=O)(=O)NCC(c2cccnc2)N2CCc3ccccc32)cc1 (stereo unspecified),-7%,9%,-1%,40µM*,18%,-17%,-4%,-7%
CCOC(=O)N1CCN(Cc2ccccc2Cl)CC1,1%,-6%,?,10µM*,39%,-7%,6%,-20%
COc1ccccc1/C=C/C(=O)Oc1cccc2cccnc12,-11%,?,-27%,?,1%,-9%,4%,-5%
CCc1nc(N2CCN(C(=O)c3ccco3)CC2)c2c3c(sc2n1)CCCC3,-5%,?,25%,45µM*,21%,-15%,-3%,-3%
FC(F)(F)c1nc2ccccc2nc1N/N=C\c1ccccc1,-6%,?,-20%,-6%[59 µM],-29%,-15%,-5%,-6%
Cc1ccc(CNc2ccc(N3C(=O)CC(C)C3=O)cc2[N+](=O)[O-])cc1 (stereo unspecified),-4%,?,0%,?,19%,-9%,5%,-9%
COc1ccc(OCC#CCn2ccnc2)cc1,-3%,-12%,-17%,7.1µM*,-16%,-11%,1%,-9%
COc1ccc(Cn2ccnc2SCC(=O)Nc2cc(C(F)(F)F)ccc2Cl)cc1,-11%,?,17%,10µM*,-29%,?,nt,-9%[60.1 µM]
Cc1c(C)n(Cc2ccccc2)c2ncnc(NN)c12,-3%,-7%,4%,-16%,-18%,-7%,39%,-4%[60.1 µM]
CC(NS(=O)(=O)c1ccc(OCC(=O)N2CCOCC2)c(Cl)c1)c1ccccc1 (stereo unspecified),-4%,-8%,1%,8%[59 µM],-20%,-21%,1%,3%
CCOC(=O)c1c(-c2ccc(OC)cc2)csc1/N=C/C1C(=O)CCCC1=O,-9%,?,-18%,45µM*,29%,-6%,-3%,-14%

# Ordered by length of the SMILES (falling): 13 of the compounds above
SMILES,BLM inh,Anesthetic bind,Pol iota inh,G9a block,POLB inh,POLH inh,APEX1 inh,Pol kappa inh
Cc1ccc(CNc2ccc(N3C(=O)CC(C)C3=O)cc2[N+](=O)[O-])cc1 (stereo unspecified),-4%,?,0%,?,19%,-9%,5%,-9%
O=C(CCc1ccccc1)NC(NC(=S)Nc1ccc(Cl)cc1)C(Cl)(Cl)Cl (stereo unspecified),-3%,-3%,?,?,13%,-10%,4%,3%
CCc1nc(N2CCN(C(=O)c3ccco3)CC2)c2c3c(sc2n1)CCCC3,-5%,?,25%,45µM*,21%,-15%,-3%,-3%
Cc1ccc(S(=O)(=O)NCC(c2cccnc2)N2CCc3ccccc32)cc1 (stereo unspecified),-7%,9%,-1%,40µM*,18%,-17%,-4%,-7%
CC(C)CC(=O)N1CCN(Cc2cccc([N+](=O)[O-])c2)CC1,5%,-7%,-2%,nt,7%,1%,3%,-7%
CCC/C=N/Nc1nnc(Cc2ccc(OC)c(OC)c2)c(=O)[nH]1,-2%,-3%,8%,?,6%,-13%,43%[activator],-37%
CCC(Sc1nnc(C)n2c1cc1occc12)C(=O)Nc1ccccc1F (stereo unspecified),-5%,55%[activator],10%,-47%[59 µM],-2%,-12%,nt,-15%
COCCCNc1oc(-c2ccc(COc3ccccc3C)o2)nc1C#N,-10%,-2%,3%,10µM*,2%,-9%,nt,-12%
COc1ccc(CN2CCN(C(=O)CC(C)C)CC2)cc1OC,1%,0%,6%,?,4%,3%,-3%,-2%
N#Cc1nc(COc2ccc(Br)cc2)oc1N1CCCCCC1,-8%,80%[activator],13%,45µM*,15%,-11%,-4%,-4%
CC1CCCN(c2ccc([N+](=O)[O-])s2)C1 (stereo unspecified),1%,-18%,13%,25µM*,0%,1%,7%,4%
CCOC(=O)N1CCN(Cc2ccccc2Cl)CC1,1%,-6%,?,10µM*,39%,-7%,6%,-20%
O=C(CNCC1CCCO1)NCc1ccco1 (stereo unspecified),-2%,-3%,147%[activator],8.9µM*,-13%,-16%,4%,-5%
